HCMV UL50-53 inh = cytomegalovirus nuclear egress complex inhibition; inhibition, % (test concentration not listed); HTRF UL50-UL53 interaction, normalized percent inhibition; AID 1918969; hit rate 0.15% among 190,000;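 active = both replicates at 50% or more, plus weaker picks with an unusually low signal ratio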;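 also: stock transfer was 100 nL into about 20 µL; 0% = negative control wells and 100% = wells with untagged competitor protein; inactives centre near -12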
Sa growth 42C = S. aureus growth inhibition. S. aureus RN4220 growth, OD600, 20 h, 42 °C; active compounds read low. relative growth, % (no concentration beside the values). hit rate 0.53% among 170,000. AID 720641;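 active = growth at 42 °C up to 50% and 20 or more points under that at 30 °C, or under 10% at both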;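 also: 300 nL library stock went into each well; scaled to the means of positive and negative controls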
GIV Gai3 FP = inhibitors of GIV GBA-motif binding to rat Galpha-i3. P08753. Galpha-i3/FITC-GIV peptide fluorescence polarization, 90 min; active compounds read low; scaled: aluminum fluoride 0%, vehicle 100%. percent of control (FP), % (test concentration not listed). hit rate 0.42% among 210,000. AID 1224905;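 active = replicate mean at 85% of control or lower, very high polarization wells dropped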;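 also: lower values mean more displacement of the GIV peptide from Galpha-i3; wells of about 15 µL received 100 nL stock; the first replicate is given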
Target sequence (P08753 whole entry, looked up): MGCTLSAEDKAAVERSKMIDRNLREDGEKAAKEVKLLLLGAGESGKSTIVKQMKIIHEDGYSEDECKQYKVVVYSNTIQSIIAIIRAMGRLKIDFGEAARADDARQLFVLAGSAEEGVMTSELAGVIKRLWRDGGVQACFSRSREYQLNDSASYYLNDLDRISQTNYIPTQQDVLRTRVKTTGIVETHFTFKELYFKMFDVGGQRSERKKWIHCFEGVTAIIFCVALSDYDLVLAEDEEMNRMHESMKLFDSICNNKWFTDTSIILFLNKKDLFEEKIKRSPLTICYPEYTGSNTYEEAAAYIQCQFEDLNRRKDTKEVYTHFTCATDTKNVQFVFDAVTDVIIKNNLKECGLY
Sa growth 42C second temp = second read-out of Sa growth 42C, no call of its own (marks repeat the call); relative growth, %; measured here: growth at 30 °C;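 optical density after 20 h as mean of two plates; 100% = untreated growth and lower means inhibition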
Active calls of the source: *; . = not tested or not shown; & = joins results of further samples.

SMILES | HCMV UL50-53 inh | Sa growth 42C | Sa growth 42C second temp | GIV Gai3 FP
CCOC(=O)c1c(NC(=O)COc2ccc(Cl)cc2C)sc2c1CCCCC2 | -55 | 103 | 85 | 111
COc1ccc(Nc2cc(-n3nc(C)cc3C)ncn2)cc1Cl | -14 | . | . | 108
COc1cc(NC(=O)C2CCN(S(=O)(=O)Cc3ccccc3)CC2)c(OC)cc1Cl | -22 | 106 | 88 | 105
COc1ccc(S(=O)(=O)N2CCC(N3CCN(Cc4ccccc4)C(=O)C3=O)CC2)cc1 | . | 83 | 87 | 103
O=C(C1CCC(CNS(=O)(=O)c2ccc(Br)s2)CC1)N1CCN(c2ccccc2)CC1 (centres undefined) | 0 | 95 | 86 | 98
CN(CC(=O)Nc1ccc2c(c1)CCC2)C1CCS(=O)(=O)C1 (centres undefined) | -23 | 94 | 95 | .
COC(=O)c1ccc(Nc2nc(=O)c3cccnc3s2)cc1 | -22 | 110 | 89 | 103
C=C1c2ccccc2N=C(SCC(=O)Nc2cccnc2Cl)N1C | -24 | 75 | 88 | .
O=C(c1ccc2c(c1)N(Cc1ccccc1F)C(=O)c1ccccc1S2(=O)=O)N1CCN(c2ccccn2)CC1 | -28 | 91 | 93 | 101
Cc1ccc(-c2cn3c(n2)sc2cc(C(=O)NC4CCCCCC4)ccc23)c(C)c1 | . | 118 | 92 | 103
CCOc1ccccc1NC(=O)c1cccc(NC(=O)c2ccco2)c1 | 1 | 103 | 89 | 104
Clc1cccc(-n2ncc3c(NCCCc4ccccc4)ncnc32)c1 | . | 116 | 90 | 100
CC(=O)NC12CC3CC(C1)CC(C(=O)N1CCN(Cc4ccccc4)CC1)(C3)C2 | -13 | 100 | 92 | .
CN(CC(=O)Nc1sc2c(c1C(=O)c1cccs1)CCCC2)C1CCCCC1 | -1 | 82 | 87 | 110
Cn1cnc(S(=O)(=O)N2CCC(C(=O)N3CCN(c4ccc(Cl)cc4)CC3)CC2)c1 | -23 | 86 | 90 | 98&104
CCN(CC)CCNC(=O)c1ccc2nc(CCc3ccccc3)oc2c1 | . | 79 | 91 | 103
CCOC(=O)c1cc(S(=O)(=O)N2CCN(c3ccc(F)cc3)CC2)[nH]n1 | . | 99 | 97 | 106
CSc1ccccc1NC(=O)Cc1ccccc1 | -3 | 104 | 95 | 104
CCCN1CC=C2C(C#N)=C(N)C(C#N)(C#N)C(c3ccc(OCC(N)=O)cc3)C2C1 (centres undefined) | -19 | 109 | 91 | 85*
COc1ccc(OC)c(S(=O)(=O)N2CCc3nc(N4CCCCC4)ncc3C2)c1 | -5 | . | . | 113
Cc1cc2occ(CC(=O)Oc3ccc(-c4nnco4)cc3)c2cc1C(C)C | -40 | 93 | 78 | .
CN(Cc1ccccc1)S(=O)(=O)c1ccc2c(c1)n(C)c(=O)c(=O)n2C | 8 | 87 | 100 | 101
Cc1csc(NN=C2CCCCC2)n1 | -40 | 90 | 81 | 106
CCN1CCN(c2oc(/C=C/c3cc(OC)c(OC)c(OC)c3)nc2C#N)CC1 | -47 | 92 | 90 | 97

Next part, overlapping the part above by 6 compounds.
SMILES | HCMV UL50-53 inh | Sa growth 42C | Sa growth 42C second temp | GIV Gai3 FP
CCCN1CC=C2C(C#N)=C(N)C(C#N)(C#N)C(c3ccc(OCC(N)=O)cc3)C2C1 (centres undefined) | -19 | 109 | 91 | 85*
COc1ccc(OC)c(S(=O)(=O)N2CCc3nc(N4CCCCC4)ncc3C2)c1 | -5 | . | . | 113
Cc1cc2occ(CC(=O)Oc3ccc(-c4nnco4)cc3)c2cc1C(C)C | -40 | 93 | 78 | .
CN(Cc1ccccc1)S(=O)(=O)c1ccc2c(c1)n(C)c(=O)c(=O)n2C | 8 | 87 | 100 | 101
Cc1csc(NN=C2CCCCC2)n1 | -40 | 90 | 81 | 106
CCN1CCN(c2oc(/C=C/c3cc(OC)c(OC)c(OC)c3)nc2C#N)CC1 | -47 | 92 | 90 | 97
C=CCn1c(SCC(=O)c2ccccc2)nnc1-c1sc2nc(C)cc(C)c2c1N | -24 | 100 | 92 | 100
Cc1cc(CCN)c(C)n1-c1ccccc1 | -22 | 87 | 88 | .
COC(=O)c1ccc(C2C3=C(CC(c4ccc(OC)cc4)CC3=O)Nc3onc(C)c32)cc1 (centres undefined) | -25 | . | . | 106
CC(C)(C)C(=O)COC(=O)c1cc(Br)ccc1Cl | 10 | 120 | 93 | .
COc1ccc(Cc2nc3c4cnn(-c5ccccc5F)c4ncn3n2)cc1 | -10 | 107 | 84 | 102
CCOC(=O)C1=NN(C(=O)c2cccc([N+](=O)[O-])c2)C(O)(C(C)(C)C)C1 (centres undefined) | -27 | . | . | 103
CCn1nccc1NC(=O)c1ccc(Cl)c(S(=O)(=O)N(C)c2ccccc2)c1 | -12 | 102 | 92 | .
COc1cc(-c2nc3ncccn3c2Nc2ccc(C)cc2C)ccc1O | 1 | 110 | 93 | 110
COc1ccc(OCC(=O)N2CCN(C(=O)c3cc(OC)c(OC)c(OC)c3)CC2)cc1 | -5 | 100 | 101 | 103
CN1C(=O)c2ccccc2N(C)C1c1ccc(F)cc1 (centres undefined) | 0 | 116 | 79 | 101
CSc1nnc2c(n1)OC(C)Nc1ccccc1-2 (centres undefined) | . | 68 | 92 | 107
CC(C)c1ccc2occ(CC(=O)Nc3cccc(C(F)(F)F)c3)c2c1 | -9 | 76 | 36 | 108
O=C(CN1C(=O)C(c2ccccc2)=NC12CCCC2)Nc1ccc(Cl)cc1 | -3 | 126 | 97 | 108
COCCN1C(=O)/C(=C/c2cn(CC(=O)OC)c3ccccc23)C(=O)N(c2ccccc2)C1=O | . | 91 | 87 | 118
Cn1c(=O)cc(OCCCC(=O)NC2CCCCC2)c2ccccc21 | . | 92 | 89 | 100
CCOC(=O)NCc1ccc2[nH]c(C)cc2c1 | -10&-3 | 79 | 89 | 107
CCN(Cc1ccccc1)C(=O)CCc1nc(CN2CCN(S(=O)(=O)c3ccc(CC(C)C)cc3)CC2)no1 | 10 | . | . | 106
CC1(C)CC(=O)C(C=NCCO)=C(O)C1 | -12 | 94 | 89 | 97
O=C1CC(c2ccc(S(=O)(=O)N3CCCCC3)cc2)CN1 (centres undefined) | -4 | 107 | 84 | .
O=C(NCCc1ccccc1)C1CC(=O)N2CCN=C2S1 (centres undefined) | -11 | 105 | 93 | 106
O=C1Cc2cc(S(=O)(=O)N3CCN(c4ccccc4)CC3)ccc2N1 | -14&-31 | 77 | 96 | 104&106
CCOC(=O)C1CCN(C(=O)c2ccc(NC(=O)C3CCCO3)cc2)CC1 (centres undefined) | 4 | 115 | 85 | 102
CN1CCN(C(CNC(=O)C(=O)Nc2ccc(F)cc2)c2cccnc2)CC1 (centres undefined) | -2 | 104 | 98 | 103
O=C(CCC(=O)N1CCOc2ccccc21)N1CCOCC1 | 8 | 103 | 95 | 102
NC(=O)/C(=N/O)C1=NC2(CCCCC2)Cc2ccccc21 | -16 | 94 | 82 | .
Cc1ccc(C2=CC(c3ccccc3C)n3c(nc4ccccc43)N2)cc1 (centres undefined) | . | 102 | 71 | 109
CCOC(=O)c1[nH]c(C)c(CCC(=O)NCc2ccc(OC(C)C)cc2)c1C | . | 69 | 68 | 103
CCC(C(=O)N1CCOCC1)n1c(C(=O)OC)cc2ccsc21 (centres undefined) | -17 | . | . | 104
CCOc1ccc(N2CC(NC(=O)c3cc4ccccc4o3)CC2=O)cc1 (centres undefined) | . | 116 | 98 | 98
O=C(OCc1cc(=O)n2c3c(sc2n1)CCCC3)C1CCCN1S(=O)(=O)c1ccccc1F (centres undefined) | -19 | 101 | 82 | .
COc1cccc(CN2CCC(C(=O)N3CCc4ccccc4C3)CC2)c1OC | -9 | 101 | 94 | .
CCN(CC)c1ccc(NC(=O)c2ccc(C)cc2)c(N(CC)CC)n1 | -2 | 97 | 89 | 105
Cc1ccc(C)c(CSc2nnc3n(CC(C)C)c(=O)c4cc(F)ccc4n23)c1 | -7 | . | . | 109
Cc1ccc(Nc2nc3nonc3nc2N2CCCCC2)cc1C | -24 | . | . | 104
O=C(Cn1c(=O)oc2cc(S(=O)(=O)NCc3ccccc3)ccc21)NCc1ccc(Cl)cc1 | . | 120 | 77 | 101
CCOc1ccc(NC(=O)CC2Nc3cccc4cccc(c34)NC2=O)cc1 (centres undefined) | -27 | 92 | 93 | 98
Cc1ccc(CNC(=O)C2CCCCN2S(=O)(=O)c2ccc(F)cc2)cc1 (centres undefined) | . | 110 | 92 | 101
COc1cc(C2C(C#N)=C(N)Oc3nc[nH]c(=O)c32)ccc1OCC(N)=O (centres undefined) | -22 | 90 | 86 | 102
CCN(CC(=O)Nc1ccc2c(c1)OCCO2)c1ccc(S(=O)(=O)N2CCOCC2)cn1 | -36 | 76 | 85 | .
CCC(=O)NCc1nc2ccccc2n1Cc1ccccc1Cl | -22 | . | . | 105
O=C(COc1ccccc1Br)NCCc1nc2ccccc2[nH]1 | -8 | . | . | 95
O=C1COc2cc(S(=O)(=O)N3CCCC3C(=O)NC3CCCc4ccccc43)c(Cl)cc2N1 (centres undefined) | -25 | . | . | 102
Cc1cc2oc(C(=O)NCC(c3ccc(C(C)(C)C)cc3)N(C)C)cc(=O)c2cc1C (centres undefined) | -20 | . | . | 103
CCc1cc(=O)[nH]c(SCc2ccc(F)cc2)n1 | -21 | . | . | 95
COc1ccc(Cl)cc1NC(=O)CN1C(=O)CSC(C)C1=O (centres undefined) | -15 | 106 | 87 | 98
CC1CCCCN1C(=O)COC(=O)Cc1c[nH]c2ccccc12 (centres undefined) | -21 | 73 | 93 | .
CCCNC(=O)c1ccc(-n2c(-c3ccccc3)cc3c2CCCC3)cc1 | . | 95 | 84 | 104
CCOc1ccc(OCCN2CCN(C)CC2)cc1 | 7 | 101 | 61 | 99
CCC(=O)N1CCCC1c1nc2ccccc2n1CCCCOc1ccccc1Cl (centres undefined) | -13 | . | . | 105
O=C(Nc1cccc(Cl)c1)C1CCN(c2nc3ccccc3nc2C(F)(F)F)CC1 | -12 | 83 | 90 | 105&103
CCc1cccc(NC(=O)C(CC(C)C)NS(=O)(=O)c2ccc3c(c2)oc(=O)n3C)c1 (centres undefined) | 4 | 101 | 105 | 100
Cc1ccc2[nH]cc(NC(=O)N3CCCC(c4ccccc4)C3)c(=O)c2c1 (centres undefined) | -18 | . | . | 110
CCOc1ccc(S(=O)(=O)N(CC(=O)N2CCC(C)CC2)c2ccccc2)cc1 | . | 104 | 81 | 104
O=C(O)C1CCN(C(=O)/C=C/c2ccccc2)CC1 | -16 | 100 | 99 | .
Cc1ccc(OCCOCCN2CCCCC2)c(C)c1 | 3 | 99 | 113 | 102
Cc1ccc(-c2nc3cc(C(C)C)ccc3o2)cc1NC(=O)c1cccs1 | -9 | 95 | 88 | 108
O=C1c2ccccc2S(=O)(=O)N1CCS(=O)(=O)c1ccc(F)cc1 | 0 | 89 | 93 | 97
O=C(CCS(=O)(=O)c1cc(Br)cc2c1N(C(=O)C1CC1)CC2)Nc1cc(F)ccc1F | 3 | 99 | 88 | 107
CCC(=O)Nc1cc(C(C)C)c(O)cc1C | 10 | 93 | 101 | 102
COc1cccc(C(CC(=O)Nc2sc3c(c2C#N)CCCC3)NC(=O)c2ccccc2)c1 (centres undefined) | . | 72 | 89 | 105

Structures listed above shown as hits in GIV Gai3 FP.
canonical_smiles | Sa growth 42C second temp | GIV Gai3 FP
CCCN1CC=C2C(C#N)=C(N)C(C#N)(C#N)C(c3ccc(OCC(N)=O)cc3)C2C1 (centres undefined) | 91 | 85*

The listing continues.
SMILES | HCMV UL50-53 inh | Sa growth 42C | Sa growth 42C second temp | GIV Gai3 FP
Cc1ccc(CNc2ccc(-c3nc(-c4ccccn4)no3)cc2[N+](=O)[O-])cc1 | 9 | 104 | 89 | 104
O=C(Cn1[nH]c(=O)c2ccccc2c1=O)OCC(=O)N1CCCc2ccccc21 | -26 | 87 | 89 | .
c1ccc(-c2nccnn2)cc1 | 6 | 107 | 101 | 96
C=CCn1c(SCC(=O)Nc2nnc(CC)s2)nnc1-c1cccs1 | -11 | 106 | 88 | .
CC1CCN(c2nc3ccc(C(=O)NCc4ccccc4Cl)cc3s2)CC1 | -6 | 97 | 95 | 100
Cc1cc2c(cc1S(=O)(=O)CCC(=O)NC1CCC(C)CC1)OCC(=O)N2 (centres undefined) | . | 94 | 89 | 105
COc1ccccc1NC(=O)CCS(=O)(=O)c1ccc2nc(C)sc2c1 | . | 81 | 80 | 108
CCOC(=O)C1=C(C)N=c2s/c(=C3\C(=O)N(C(C)=O)c4ccccc43)c(=O)n2C1c1ccc(OC(C)=O)cc1 (centres undefined) | -8 | . | . | 112
Cc1nc2ccc(S(=O)(=O)CCC(=O)NCc3cccs3)cc2s1 | . | 87 | 82 | 101

At a glance, 2 of the compounds above:
SMILES | HCMV UL50-53 inh | Sa growth 42C | Sa growth 42C second temp | GIV Gai3 FP
CC1CCCCN1C(=O)COC(=O)Cc1c[nH]c2ccccc12 (centres undefined) | -21 | 73 | 93 | .
CCCNC(=O)c1ccc(-n2c(-c3ccccc3)cc3c2CCCC3)cc1 | . | 95 | 84 | 104

Screens (PubChem BioAssay)
